Compound activity: PubChem BioAssay, National Center for Advancing Translational Sciences (NCATS)
TRPV1 PAM = potentiators of human vanilloid receptor 1 (TRPV1). AID 540277. potentiation, % at 8.33 µM. actives 0.02% (n = 320,000). TRPV1-expressing cells, Fluo-8 calcium influx, capsaicin EC20 potentiation; host cell line not named in the record; control for the full effect not named in the record; active means potentiation above 80%; inconclusive means 30% to 80%; inactive means below 30%; note: 0% is about no effect
Target sequence (Q8NER1 whole entry, looked up): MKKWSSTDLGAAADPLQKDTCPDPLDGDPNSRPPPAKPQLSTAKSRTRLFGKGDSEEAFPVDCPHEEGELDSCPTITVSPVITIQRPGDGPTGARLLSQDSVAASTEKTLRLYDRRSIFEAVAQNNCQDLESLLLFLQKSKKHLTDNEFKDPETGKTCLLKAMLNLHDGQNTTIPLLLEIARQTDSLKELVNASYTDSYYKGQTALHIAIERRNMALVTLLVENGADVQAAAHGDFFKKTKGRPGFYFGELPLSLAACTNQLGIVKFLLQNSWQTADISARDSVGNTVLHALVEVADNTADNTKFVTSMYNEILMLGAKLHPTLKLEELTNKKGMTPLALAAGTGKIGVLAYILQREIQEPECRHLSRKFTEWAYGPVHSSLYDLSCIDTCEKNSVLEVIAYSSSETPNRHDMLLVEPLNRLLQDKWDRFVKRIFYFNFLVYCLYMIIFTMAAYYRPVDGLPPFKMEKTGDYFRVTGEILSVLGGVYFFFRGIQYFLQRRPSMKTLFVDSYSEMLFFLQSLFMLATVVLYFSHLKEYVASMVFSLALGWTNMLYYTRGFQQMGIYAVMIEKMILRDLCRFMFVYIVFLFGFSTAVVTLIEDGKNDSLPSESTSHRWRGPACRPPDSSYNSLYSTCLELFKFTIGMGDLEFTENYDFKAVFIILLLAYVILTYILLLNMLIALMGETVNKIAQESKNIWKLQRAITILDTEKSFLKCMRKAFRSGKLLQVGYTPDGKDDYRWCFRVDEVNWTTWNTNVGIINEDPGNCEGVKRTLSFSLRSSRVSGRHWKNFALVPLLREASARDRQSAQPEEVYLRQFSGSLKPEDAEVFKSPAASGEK
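Fluo-8 calcium influx in TRPV1-expressing cells, kinetic read (ex 480/em 520 nm). Compound added and read 3 min for agonist activity, followed by capsaicin at EC20 final and 2 min further read for enhancement.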
TRPML1 inh = human mucolipin-1 channel inhibition; TRPML1-inducible cells, Ca2+ dye fluorescence, FDSS; stronger effect = lower value; inhibition of EC80 agonist-evoked calcium signal; activity change, negative = inhibition, % (concentration not given with the values); actives 0.02% (n = 390,000); AID 624415; in the data active means activity change below about -50%; inconclusive means about -30% to -50%; inactive means above about -30%;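 note: stimulus is agonist 54-4 at its EC80 concentration; % is set by controls: 0 for no effect and ±100 for the full control effect; compound concentration not given in the record; the text of the record puts the active cut at -80%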
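TRPML1-DL cells, Tet-induced overnight (~16 h, 37 °C) at 1,500 cells/well, were loaded with Ca8 no-wash dye plus quencher for 45-90 min at room temperature. Compounds were pinned during FDSS kinetic reading; agonist 54-4 at EC80 (4 uM final) then added.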
Sfp inh = inhibitors of Bacillus subtilis Sfp phosphopantetheinyl transferase; Biochemical Sfp PPTase activity, qHTS; Potency, µM, for inactives: max response, negative = inhibition, usual class: inhibitors; Q9F4F7; actives 3.5% (n = 310,000); active = well fitted inhibition curve with a large enough effect; inconclusive = small, poorly fitted or top-dose-only effect, or another doubt; inactive = no such curve, though single readings can be large or run the other way;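 note: the enzyme is Sfp with the accession as filed and its product quenches rhodamine fluorescence; potency is the fitted concentration of half-maximal effect; 0% = enzyme reaction without inhibitor and -100% = no enzyme wells; top concentration of the series not given in the record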
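Fluorescence-quenching assay: 15 nM Sfp-PPTase preincubated 15 min at room temperature with compound, then 5 uM rhodamine-CoA and 12.5 uM BHQ-2-labelled YbbR peptide added. Fluorescence (ex 525/em 598 nm) read at start and after 30 min; difference gives rate.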
Menin-MLL FL inh = inhibitors of human menin-MLL interaction, wild-type MLL peptide | Fluorescence polarization, fluorescein-MLL peptide displacement from menin | FP activity change, % at 61.4 µM | 290,000 tested, under 10 active; inconclusive = falling polarisation curve, or a change in total fluorescence; inactive = total fluorescence flat and polarisation flat or rising; no compound was filed as active; the % refers to the polarisation; negative = inhibition;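 note: % of control where 0% means no effect; inhibitors lower the polarisation; unlabelled MLL peptide was the positive control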
PINK1 expr mod = PINK1 expression modulation; PINK1 immunofluorescence, high-content cytometry, 24 h; actives 0.2% (n = 410,000); AID 624263; Potency, µM (top dose mostly 76.6 µM), inactives show top-dose activation (PINK1 increase), usual class: activators; active = well fitted activation curve with a large enough effect; inconclusive = small, poorly fitted or top-dose-only effect; inactive = flat fitted curve, though single readings scatter; cell line not stated here;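 note: potency is the fitted concentration of half-maximal effect; % of control where 0% means no effect; nearly all actives have a fitted effect of over 65% in size; a mitochondrial uncoupler was the plate control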
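PINK1 protein, normally rapidly degraded, was detected by immunofluorescence after 24 hour compound treatment of a stable cell line. Titration data (5 concentrations) came from laser-scanning cytometry, with CCCP-treated wells as controls.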
TRPML1 agonist = human mucolipin-1 channel agonism. Q9GZU1. TRPML1-expressing cells, Ca2+ dye fluorescence, FDSS; host cell line not named in the record; reference of the full effect not given here. activation, % (no concentration beside the values). actives 0.12% (n = 410,000); in the data active = activation above about 50%; inconclusive = about 30% to 50%; inactive = below about 30%; note: 0% is about no effect; the text of the record puts the active cut at 80%
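Tetracycline-induced TRPML1-DL cells are seeded and incubated overnight before loading with a no-wash Ca2+ dye and quencher. Agonist activity is taken from the 110 s fluorescence read following compound pin-transfer on an FDSS, before EC80 54-4 challenge.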
ClpP mod = qHTS Assay for Activators of ClpP; ATP-dependent Clp protease proteolytic subunit (Bacillus subtilis (strain 168)), P80244; purified B. subtilis ClpP, FRET peptide cleavage, 20 min; Potency, µM (doses to about 57.5 µM), inactives show at the highest dose activity change, negative = active; actives 1.9% (n = 340,000); active = well fitted falling curve with a large enough effect; inconclusive = small, poorly fitted or top-dose-only effect; inactive = no such curve, though single readings can be large or run the other way; note: potency is the fitted concentration of half-maximal effect; the source files actives as falling curves though it sought activators and does not explain the sign; nearly all actives have a fitted effect of over 65% in size; many hits overshoot -100%
Target sequence (P80244 whole entry, looked up): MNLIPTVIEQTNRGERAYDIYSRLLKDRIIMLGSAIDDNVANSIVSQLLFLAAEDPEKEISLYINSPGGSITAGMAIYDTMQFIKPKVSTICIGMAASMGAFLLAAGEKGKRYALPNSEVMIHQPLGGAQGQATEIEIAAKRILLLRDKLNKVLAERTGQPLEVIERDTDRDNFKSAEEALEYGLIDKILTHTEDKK
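Buffer: 100 mM Tris/HCl pH8, 100 mM KCl, 0.05% low protease BSA, 2.5% glycerol, 0.01% Tween-20. ClpP 10 microg/mL final; 20 min RT; delta FRET normalized to ADEP and DMSO controls.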
* hit, by the source's call; [ ] = dose if it differs, or a comment.

For O=C1/C(=C/c2ccccn2)COc2ccccc21 the results were TRPV1 PAM 4, TRPML1 inh -10, Sfp inh -21%, Menin-MLL FL inh 0.3, PINK1 expr mod 9.2%, TRPML1 agonist 5.0 and ClpP mod 0.5%.
`O=C(/C=C/c1ccc(F)cc1)NC(=S)NNC(=O)c1cnccn1` gave TRPV1 PAM inconclusive, TRPML1 inh -10, Sfp inh 11%, Menin-MLL FL inh -7.8, PINK1 expr mod 0.7%, TRPML1 agonist -0.4 and ClpP mod 0.9%.
For CCOC(=O)c1c(S(=O)(=O)NCC(=O)Nc2ccc(F)cc2)c(C)n(C)c1C the results were TRPV1 PAM 10, TRPML1 inh -4, Sfp inh -1%, PINK1 expr mod -0.9%, TRPML1 agonist -0.3 and ClpP mod -4.1%.
For O=C(O)CCC(=O)Nc1cccc(-c2nnc(-c3ccccc3)o2)c1 the results were TRPV1 PAM -2, TRPML1 inh -6, Sfp inh 6%, Menin-MLL FL inh inconclusive, PINK1 expr mod -0.4%, TRPML1 agonist -0.5 and ClpP mod -8.7%.
Screening Cc1oc(-c2cccc(Cl)c2)nc1CN1CCC(C(=O)NCCc2ccc(Cl)cc2)CC1 returned TRPML1 inh -2, PINK1 expr mod -0.8%, TRPML1 agonist -0.7 and ClpP mod -0.9%.
Cc1onc(-c2c(Cl)cccc2Cl)c1C(=O)O/N=C(\C#N)c1ccccc1 was read as TRPV1 PAM 6, TRPML1 inh 26, Sfp inh 6%, Menin-MLL FL inh 0.4, PINK1 expr mod 6.1%, TRPML1 agonist -0.6 and ClpP mod -1.3%.
Cc1ccccc1C1=N/C(=C/c2cccs2)C(=O)O1 was read as TRPV1 PAM inconclusive, TRPML1 inh 9, Sfp inh -21%, Menin-MLL FL inh 5.4, PINK1 expr mod 1.6%, TRPML1 agonist -0.5 and ClpP mod -0.1%.
For COC(=O)[C@@]1(Cc2ccc(OC)cc2)[C@H]2c3cc(C(=O)N4CCCC4)n(Cc4ccc(S(C)(=O)=O)cc4)c3C[C@H]2CN1C(=O)c1ccccc1 the results were Sfp inh 15%, Menin-MLL FL inh 0.0, PINK1 expr mod -0.4%, TRPML1 agonist 2.4 and ClpP mod -7.0%.
For CCn1c(SCC(=O)Nc2ccc3c(c2)OCCO3)nnc1C1CC1 the results were TRPV1 PAM -8, TRPML1 inh -11, Sfp inh 13%, Menin-MLL FL inh -3.7, PINK1 expr mod -2.5% and TRPML1 agonist -0.7.
`Fc1ccc(NCc2n[nH]c(=S)n2Cc2ccccc2)cc1` gave TRPV1 PAM -3, TRPML1 inh -1, Sfp inh -12%, Menin-MLL FL inh 2.0, PINK1 expr mod 2.0% and TRPML1 agonist -0.1.
For O=C(COc1ccccc1)Nc1cc(NC(=O)COc2ccccc2)cc(C(=O)O)c1 the results were TRPV1 PAM 6, TRPML1 inh 1, Sfp inh 2%, Menin-MLL FL inh -1.9, PINK1 expr mod 1.2%, TRPML1 agonist 1.1 and ClpP mod 23%.
CCNC(=O)NS(=O)(=O)c1cnccc1Nc1cccc(Cl)c1 was read as TRPV1 PAM 3, TRPML1 inh -3, Sfp inh 11%, Menin-MLL FL inh -0.3, PINK1 expr mod 1.3%, TRPML1 agonist -0.4 and ClpP mod 3.2%.
Screening CC12CCC(C(=O)Nc3nc4ccc(Br)cc4s3)(OC1=O)C2(C)C (configuration not stated) returned TRPV1 PAM -13, TRPML1 inh 14, Sfp inh -15%, Menin-MLL FL inh -0.5, PINK1 expr mod 1.9%, TRPML1 agonist 0.7 and ClpP mod -0.1%.
Screening CC1(C(=O)NS(=O)(=O)c2ccc(C#N)cc2)CCN1C(=O)C1(c2ccc(Cl)cc2)CCC1 (configuration not stated) returned PINK1 expr mod 1.6%, TRPML1 agonist -0.7 and ClpP mod -1.4%.
`Cc1nn(-c2ccccc2)nc1CNC(=O)c1ncoc1-c1ccccc1` gave TRPV1 PAM -12, TRPML1 inh 3, Sfp inh -12%, Menin-MLL FL inh -4.4, PINK1 expr mod 1.3%, TRPML1 agonist 1.3 and ClpP mod -8.8%.

Fetched one by one from the entries so far (2):
`Fc1ccc(NCc2n[nH]c(=S)n2Cc2ccccc2)cc1` gave TRPV1 PAM -3, TRPML1 inh -1, Sfp inh -12%, Menin-MLL FL inh 2.0, PINK1 expr mod 2.0% and TRPML1 agonist -0.1.
Cc1onc(-c2c(Cl)cccc2Cl)c1C(=O)O/N=C(\C#N)c1ccccc1 was read as TRPV1 PAM 6, TRPML1 inh 26, Sfp inh 6%, Menin-MLL FL inh 0.4, PINK1 expr mod 6.1%, TRPML1 agonist -0.6 and ClpP mod -1.3%.

(cont.)
Cc1ccc(CNC(=O)C2CCN(S(=O)(=O)c3c(C)noc3/C=C/c3cccs3)CC2)cc1 was read as TRPML1 inh -15, PINK1 expr mod 0.7%, TRPML1 agonist 0.3 and ClpP mod -5.5%.
Screening c1nc(NCC2(N3CCOCC3)CCCCC2)c2ccsc2n1 returned TRPV1 PAM -12, TRPML1 inh 7, Sfp inh 16%, Menin-MLL FL inh 3.6, PINK1 expr mod 1.2%, TRPML1 agonist -0.3 and ClpP mod 1.8%.
COc1ccc(OC)c(N=c2ssnc2Cl)c1 was read as TRPV1 PAM -4, TRPML1 inh 7, Sfp inh 8.9µM*, Menin-MLL FL inh 6.9, PINK1 expr mod -0.9%, TRPML1 agonist -0.1 and ClpP mod -10%.
`O=C(CCn1c(=O)c2ccccc2n(Cc2cccc([N+](=O)[O-])c2)c1=O)N1CCc2ccccc2C1` gave TRPV1 PAM -4, TRPML1 inh -5, Sfp inh 4%, Menin-MLL FL inh 1.8, PINK1 expr mod -0.9%, TRPML1 agonist 0.9 and ClpP mod 25µM*.
O=C(COC(=O)c1ccccc1Br)NC1CCCCCCC1 was read as TRPML1 inh -2, PINK1 expr mod 0.3%, TRPML1 agonist 2.7 and ClpP mod 2.9%.
`CS(=O)(=O)N1N=C(c2ccccc2)CC1c1cccs1` (configuration not stated) gave TRPV1 PAM -7, TRPML1 inh 19, Sfp inh 14%, Menin-MLL FL inh -0.8, PINK1 expr mod 1.2%, TRPML1 agonist -0.5 and ClpP mod -8.0%.
For COc1ccc(NC(=O)c2cc(OC)c(OC)cc2OC)c(S(=O)(=O)N2CCOCC2)c1 the results were TRPV1 PAM -11, TRPML1 inh -6, Sfp inh 2%, Menin-MLL FL inh -1.1, PINK1 expr mod 8.6%, TRPML1 agonist -0.5 and ClpP mod inconclusive.
Screening CCOC(=O)c1sc2ccccc2c1S(=O)(=O)Nc1ccc(N(C)C)cc1 returned TRPML1 inh -11, PINK1 expr mod 0.7%, TRPML1 agonist 3.5 and ClpP mod 1.4%.
`CCc1nc2c(OCCC3CCCCC3)cccn2c1N(C=O)Cc1ccccc1` gave PINK1 expr mod 4.2%, TRPML1 agonist 0.2 and ClpP mod -5.3%.
For O=C(NNC(=O)c1ccccc1F)c1cccc(S(=O)(=O)N2CCc3ccccc32)c1 the results were TRPML1 inh 12, PINK1 expr mod -0.2%, TRPML1 agonist 0.2 and ClpP mod -1.9%.
For O=C1CC(Sc2nnc(-c3ccccc3O)o2)C(=O)N1c1ccccc1 (configuration not stated) the results were TRPV1 PAM -6, TRPML1 inh 0, Sfp inh 56µM*, Menin-MLL FL inh 1.9, PINK1 expr mod 4.6%[38.3 µM], TRPML1 agonist -0.5 and ClpP mod 46%.
`CCC1CCCCN1CCCNC(=O)C1CCN(Cc2nc(-c3ccc(Cl)cc3)oc2C)CC1` (configuration not stated) gave TRPV1 PAM 7, TRPML1 inh -15, Sfp inh 20%, PINK1 expr mod -1.7%, TRPML1 agonist 0.9 and ClpP mod -8.3%.
Screening Cc1cc(N)n(-c2ccc(S(=O)(=O)N3CCOCC3)cc2[N+](=O)[O-])n1 returned TRPML1 inh 26, Sfp inh 13%, Menin-MLL FL inh -0.1, PINK1 expr mod -1.4% and TRPML1 agonist 1.1.
`Cc1ccc(N(CC(=O)NCCSc2ccccn2)S(C)(=O)=O)cc1` gave TRPV1 PAM -2, TRPML1 inh -5, Sfp inh -7%, Menin-MLL FL inh 8.6, PINK1 expr mod -0.6% and TRPML1 agonist 1.0.
For COc1c2c(cc3oc(=O)ccc13)OC(C)(C)C=C2 the results were TRPV1 PAM -18, TRPML1 inh 4, Sfp inh -2%, Menin-MLL FL inh 2.3, PINK1 expr mod 0.9%, TRPML1 agonist 0.7 and ClpP mod -20%.
`O=C(CSC1=NS(=O)(=O)c2ccccc2N1)NCc1ccc(F)cc1` gave TRPV1 PAM 2, TRPML1 inh 20, PINK1 expr mod 0.3%, TRPML1 agonist -0.3 and ClpP mod -0.8%.
Screening O=C(Nc1nc(-c2ccccc2)cs1)c1cccnc1 returned TRPV1 PAM 27, TRPML1 inh -10, Sfp inh 9%, Menin-MLL FL inh 2.7, PINK1 expr mod -0.8%[38.3 µM], TRPML1 agonist 1.1 and ClpP mod -0.9%.
Screening NS(=O)(=O)OCc1ccc(C(F)(F)F)cc1 returned TRPV1 PAM 2, TRPML1 inh 19, Sfp inh 12%, Menin-MLL FL inh 0.1, PINK1 expr mod -0.7%, TRPML1 agonist -0.4 and ClpP mod -2.1%.
O=C(NC(=S)NCC1CCCO1)c1ccccc1[N+](=O)[O-] (configuration not stated) was read as TRPV1 PAM 8, TRPML1 inh -3, Sfp inh -18%, Menin-MLL FL inh 0.2, PINK1 expr mod -0.2% and TRPML1 agonist 0.7.
Screening Cc1ccc(C(=O)Oc2ccc(C(=O)COC(=O)C3CC(=O)N(Cc4ccco4)C3)cc2)cc1 (configuration not stated) returned TRPV1 PAM 5, TRPML1 inh 3, Sfp inh inconclusive, Menin-MLL FL inh 14, PINK1 expr mod 1.1%, TRPML1 agonist 0.2 and ClpP mod -2.5%.
O=C(CSCc1ccc([N+](=O)[O-])cc1)NN=C1CCCCCC1 was read as TRPV1 PAM inconclusive, TRPML1 inh -4, Sfp inh 20%, Menin-MLL FL inh 2.4, PINK1 expr mod 4.9%[38.3 µM], TRPML1 agonist -0.2 and ClpP mod 3.1%.
Screening O=C(NCCN1CCC(n2c(=O)[nH]c3ccccc32)CC1)c1ccncc1 returned PINK1 expr mod -0.2%, TRPML1 agonist -0.4 and ClpP mod 0.3%.
